GIV Gai3 FP – inhibitors of GIV peptide binding to Galpha-i3, primary screen, biochemical, fluorescence polarization, FITC-GIV GBA peptide, rat Galphai3; Guanine nucleotide-binding protein G(i) subunit alpha-3 (Rattus norvegicus), P08753; 90 min; hits give low values; scaled: aluminum fluoride 0%, vehicle 100%; percent of control (FP), % (test concentration not listed); hit rate 0.42% among 210,000;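 active means replicate mean at 85% of control or lower, very high polarization wells dropped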;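 further: wells of about 15 µL received 100 nL stock; the first replicate is given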
Target sequence (P08753 whole entry, looked up): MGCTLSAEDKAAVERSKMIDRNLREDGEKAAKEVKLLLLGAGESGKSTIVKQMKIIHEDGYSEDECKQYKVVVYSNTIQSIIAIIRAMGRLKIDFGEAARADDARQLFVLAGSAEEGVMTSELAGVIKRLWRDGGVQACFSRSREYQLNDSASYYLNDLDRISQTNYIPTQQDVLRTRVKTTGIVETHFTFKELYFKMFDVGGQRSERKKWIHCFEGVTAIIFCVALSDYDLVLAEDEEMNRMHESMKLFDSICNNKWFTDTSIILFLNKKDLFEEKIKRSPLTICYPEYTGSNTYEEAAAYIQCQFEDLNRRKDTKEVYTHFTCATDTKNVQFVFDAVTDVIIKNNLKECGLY
Active calls of the source: *; & = joins results of further samples. This is a subset, so the mix of outcomes need not match the whole.

SMILES	GIV Gai3 FP
CN(CC1CCCO1)S(=O)(=O)c1ccc(C(=O)Nc2nc(-c3ccccn3)cs2)cc1 (centres undefined)	104
COc1ccc(OC)c(S(=O)(=O)N2CCC(n3cnc4c(Cl)cccc4c3=O)CC2)c1	105
COCCCNC(=O)c1sc2ncnc(N3CCc4ccccc4C3)c2c1C	100
Cc1cccc(NC(=O)c2cc(-c3ccccc3Cl)nc3ccccc23)c1	102
O=C(Nc1cc(Cl)ccc1Oc1cc2ccccc2cc1Br)c1cc(I)cc(I)c1O	105
CC(=O)NCCc1csc(C2CCN(C(=O)C3CCC3)CC2)n1	103
Cc1ccc(NC(=O)N(Cc2nnc3n2CCCCC3)c2ccccc2)cc1	99
O=S(=O)(NCCc1cn2ccsc2n1)c1ccc(Oc2ccccc2)cc1	145
CNC(=O)N(O)C1N(/N=C/c2ccco2)C(=S)SC1(C)C (centres undefined)	117
CCOC(=O)c1sc2ncnc(Nc3cc(Cl)ccc3OC)c2c1C	108
c1ccc(-c2oc3ncn4nc(-c5ccco5)nc4c3c2-c2ccccc2)cc1	112
O=C(c1ccc2cccc(O)c2n1)N1CCC(N2CCCCC2)CC1	103
CCOc1ccc(NC(=O)Cn2c(=O)nc(NCc3ccccc3)c3ccccc32)cc1	101
Cc1c(C)n(-c2ccccc2)c2nc(C(=O)N3CCc4ccccc43)nc(N3CCCCC3)c12	100
O=c1ccc(-c2ccc(F)cc2)nn1CCc1nc(-c2cccc(Br)c2)no1	103
COc1cccc(C2=NN3C(C2)c2cc(Cl)ccc2OC3c2ccc(SC)cc2)c1 (centres undefined)	106
CN(C)S(=O)(=O)c1ccc(C(=O)Nc2c3c(nn2-c2ccc(Cl)cc2)CS(=O)(=O)C3)cc1	104
CN(C)C(=O)c1ccc2c(c1)nc(CN1CCN(S(=O)(=O)c3ccc(F)c(F)c3)CC1)n2C	102
Cc1nnc(-c2c(C)[nH]c(C)c2S(=O)(=O)NCCN(C)C)o1	104
COc1ccc2c(c1)[C@H]1OCCC[C@H]1C(c1cc(Cl)c(OC)c(OC)c1)N2 (some centres undefined)	98
CCOC(=O)c1cc(C)nc2c1c(=O)n(Cc1nc(-c3ccccc3C)oc1C)c(=O)n2C	111
CC(C)NC(=O)CCn1c(=O)c2ccccc2n2c(SCc3cccc(Cl)c3)nnc12	94
COc1ccc(S(=O)(=O)Nc2ccc(C3(C(=O)NCCC(C)C)CCC3)cc2)cc1OC	96
CN(c1cccc(NC(=O)C2CCCN(S(=O)(=O)Cc3ccccc3Cl)C2)c1)S(C)(=O)=O (centres undefined)	105
CCc1nnc(NC(=O)CSc2nnc3ccc(-c4ccccc4)nn23)s1	114
Cc1cc(NC(=O)CCc2nc(CSc3nc4ccccc4o3)no2)no1	109
O=c1c2nnc(SCc3ccc(F)cc3)n2ccn1-c1ccc(Br)cc1	108
CC(C)NS(=O)(=O)c1ccc2c(c1)N(Cc1noc(C3CCC3)n1)C(=O)CO2	99
COc1ccc(-n2ncc3c(Nc4ccc(Br)cc4)ncnc32)cc1	109
CSC1=NC(=Nc2cccc(C(F)(F)F)c2)C2(CCCCC2)N1c1cccc(C(F)(F)F)c1	106
CCOC(=O)c1c(NC(=O)COc2ccc(Cl)cc2C)sc(C(=O)N2CCCCC2)c1C	101
O=C1CSC(c2cn(-c3ccccc3)nc2-c2cc3ccccc3oc2=O)N1CC1COc2ccccc2O1 (centres undefined)	101
O=C(NCCC1=CCCCC1)C1CCCN(S(=O)(=O)Cc2ccccc2)C1 (centres undefined)	98
CC12c3ccccc3C(c3ccccc31)C1C(=O)N(c3ccccc3)C(=O)C12 (centres undefined)	109
COc1ccc(/C=N/n2c(C)nnc2-n2nc(C)cc2C)cc1OC	106
COCCNC(=O)C1CCCN(C(=O)c2ccc(NS(=O)(=O)c3ccc4c(c3)CCCC4)cc2)C1 (centres undefined)	106
COc1ccccc1CC(=O)Nc1ccc(-c2noc(COc3ccc(Br)cc3)n2)cc1	105
CCCCNc1nc(SCC(=O)NC2CCCCC2)nc2ccccc12	104
CCOc1ccc(NS(=O)(=O)c2cc(-c3ccc4nncn4n3)ccc2C)cc1	102
COc1ccc(C2CC(=O)C3=C(C2)Nc2ccccc2NC3c2cc3c(cc2Cl)OCO3)cc1OC (centres undefined)	111&106
O=c1ccn(-c2ccc(Cl)cc2)nc1-c1nc(-c2ccccc2OCc2ccccc2)no1	95
COc1ccc(CSc2nccc3c2ccn3CC(=O)NCc2ccccn2)cc1	103
Cc1cc(C(F)(F)F)c(C#N)c(=O)[nH]1	40*
O=C(NCC1CCCO1)C1CCN(c2cncnc2N2CCCC2)CC1 (centres undefined)	105
Cc1c(Cl)cccc1N1C(=O)C(N2C(=O)c3cccc([N+](=O)[O-])c3C2=O)C1c1cccs1 (centres undefined)	100
CN1CCN(C(=O)c2cc3nc(-c4ccc(Cl)c(Cl)c4)cc(C(F)(F)F)n3n2)CC1	101
CN1CCN(C(=O)C2(c3ccccc3Cl)CC2)CC1	100
CCOC(=O)C1=C(C)N=c2s/c(=C/c3cn(C)c4ccccc34)c(=O)n2C1c1cc(OC)ccc1OC (centres undefined)	106
CCn1cc(C(=O)Oc2ccc3cnccc3c2)c2ccccc2c1=O	107
COc1ccc(-c2nc3ccccc3c3nnc(SCCN(C)C)n23)cc1	101
COc1ccc(-c2nc3ccc(C(=O)N4CCN(c5cc(C)ccc5C)CC4)cc3nc2-c2ccc(OC)c(OC)c2)cc1OC	108
CCOc1ccc(C(=O)N2CCCC(c3nc(-c4ccc(NC(C)=O)cc4)no3)C2)cc1OCC (centres undefined)	104
CN=C1S/C(=C\c2cc3c(cc2Br)OCO3)C(=O)N1C	115
Cc1nc(CCNC(=O)[C@H]2CCCN2S(=O)(=O)c2ccc3c(c2)oc(=O)n3C)cs1	98
COc1ccc(-c2noc3ncnc(N4CCC(C(=O)N5CCC(C(N)=O)CC5)CC4)c23)cc1	102
O=S(=O)(c1ccc(F)cc1)N1CCC(c2noc(-c3cccc(F)c3)n2)CC1	103
CCOC(=O)N1CCN(C(=O)c2ccc3c(=O)n(-c4ccc(OC)cc4OC)c(=S)[nH]c3c2)CC1	116
COc1cccc(CC(=O)N2CCCC(c3nc(-c4ccc(NC(C)=O)cc4)no3)C2)c1 (centres undefined)	105
O=C(c1cc2nc(-c3ccc([N+](=O)[O-])cc3)cc(C(F)(F)F)n2n1)N1CCN(Cc2ccccc2)CC1	106
O=C(Nc1ccc(Cl)cc1)c1ccc(N2CC3CC(C2)c2cccc(=O)n2C3)c(NC(=O)c2ccccc2Cl)c1 (centres undefined)	108
(list continues)
SMILES	GIV Gai3 FP
COc1ccc(-c2cn3nc(-c4ccc(F)cc4)c(-c4ccc(F)cc4)nc3n2)cc1	146
CCn1c(=O)c2ccn(CC(=O)Nc3ccc(F)cc3)c2n(CC)c1=O	100
CCOc1ccc(N=CC23c4ccccc4C(c4ccccc42)C2C(=O)N(c4ccccc4)C(=O)C23)cc1 (centres undefined)	108
Cc1ccccc1CS(=O)(=O)N1CCCC(C(=O)Nc2ccccc2Oc2ccccc2)C1 (centres undefined)	98
O=C(Nc1nccs1)c1ccccc1Br	103
Clc1ccc2c(c1)C(c1ccccc1)=NNC(c1ccc(Br)cc1)=N2	118
CC(=O)Oc1ccc(/C=C2\N=C(c3ccc(C(C)(C)C)cc3)OC2=O)cc1OC(C)=O	123
CCC(=O)N1c2ccccc2N2C(c3c(C)cc(C)cc3C)=NON12	106
CCOC(=O)C1=NNC2(C)C(=O)N(c3ccc(C)c(C)c3)C(=O)C12 (centres undefined)	107
Cc1c(C(=O)NCCCN2CCOCC2)sc2ncnc(N3CCN(c4ccccc4F)CC3)c12	112
CC1CCN(C(=O)c2cc3c(s2)CCC(C(=O)NCCCN2CCCCC2)C3)CC1 (centres undefined)	109
Cc1nc(-c2cc(S(=O)(=O)N(C(C)C)C3CCCCC3)c(C)s2)sc1C	104
COc1cccc(-n2nnc3c(N4CCN(C(=O)c5cc(=O)c6ccccc6o5)CC4)ncnc32)c1	96
CN(Cc1cccs1)C(=O)NC1CCCC1	98
COc1ccc(C2CCN(S(C)(=O)=O)CC2)cc1	100
O=C(NC1CCCCC1)c1cccc(NC(=O)c2nsc3ccccc23)c1	100
CC(C)c1ccc(NC(=O)CSc2ncccc2C(=O)NCc2ccccc2Cl)cc1	100
CC(C)NC(=O)C1=CCN(C(=O)NC(C)(C)C)CC1	104
COc1ccc(-c2cc(N3CCN(C(=O)NC4CCCCC4)CC3)ncn2)cc1OC	100
Ic1ccc(Nc2nc3nonc3nc2N2CCCCCC2)cc1	107

The final 5 records of the part before open the next one:
SMILES	GIV Gai3 FP
O=C(NC1CCCCC1)c1cccc(NC(=O)c2nsc3ccccc23)c1	100
CC(C)c1ccc(NC(=O)CSc2ncccc2C(=O)NCc2ccccc2Cl)cc1	100
CC(C)NC(=O)C1=CCN(C(=O)NC(C)(C)C)CC1	104
COc1ccc(-c2cc(N3CCN(C(=O)NC4CCCCC4)CC3)ncn2)cc1OC	100
Ic1ccc(Nc2nc3nonc3nc2N2CCCCCC2)cc1	107
COc1ccc(C2=NN(C(=O)CSc3nnc(CNC(=O)COc4ccccc4)n3C)C(c3ccc(F)cc3)C2)cc1 (centres undefined)	105
COCCn1c(SCc2nc(-c3ccc(C)cc3)no2)nc2cc3c(cc2c1=O)OCO3	103
O=C(NC1CCCCC1)C1CCN(c2cncnc2N2CCCCC2)CC1	102
COc1cc(-c2nc(-c3ccc(NC(=O)c4cccc(Cl)c4)cc3)no2)cc(OC)c1OC	108
O=C(c1cccc(-c2cc(NC3CCCCC3)ncn2)c1)N1CCN(Cc2ccccc2)CC1	105
CCOc1ccc2c(c1)C(C)CC(C)(C)N2C(=O)Nc1ccc(Cl)cc1 (centres undefined)	99
COC(=O)c1c(-c2ccc(Cl)cc2)noc1Nc1ccc(OC)c(OC)c1	107
Nc1c(C(=O)Nc2ccc(Br)cc2)sc2nc3c(c(-c4ccco4)c12)CCC3	100
O=S(=O)(Nc1ccc2nncn2n1)c1ccc(Br)cc1	105
Cc1ccc(-n2c(SCC(=O)NCCc3ccc(S(N)(=O)=O)cc3)nc3n[nH]c(C)c3c2=N)cc1C	102
COc1cccc(NC(=O)c2sc3nc4c(c(-c5cccs5)c3c2N)CCC4)c1	112
COc1cc([C@H]2[C@H](C(=O)c3ccccc3)N3C=Cc4ccccc4[C@H]3C2(C#N)C#N)cc(OC)c1OC	122
COc1ccc(C2OCC3(CO)C(C)C=C(C)C2C3C)cc1 (centres undefined)	103
O=c1n(CCOc2ccc(F)cc2)nc2c(S(=O)(=O)N3CCCC3)cccn12	104
CCOc1ccc(N2CC(O)(c3ccc(F)cc3)[N+]3=C2CCCC3)cc1 (centres undefined)	110
O=C(CSc1nc2cc(C(=O)NCC3CCCO3)ccc2c(=O)n1CC1CCCO1)c1ccccc1 (centres undefined)	108
Cc1onc(-c2ccc(F)cc2F)c1C(=O)NCc1ccc2c(c1)OCO2	110
COCCSc1c(C(C)C)cnc2c1c(=O)n(C)c(=O)n2C	103
CCc1onc(C)c1C1CCCN1Cc1ccc(O)c(OC)c1 (centres undefined)	105
CC(=O)Nc1ccc(Sc2cc(C)nc3ncnn23)cc1	100

A stretch from the list above, as a working copy:
SMILES	GIV Gai3 FP
COc1cccc(-n2nnc3c(N4CCN(C(=O)c5cc(=O)c6ccccc6o5)CC4)ncnc32)c1	96
CN(Cc1cccs1)C(=O)NC1CCCC1	98
COc1ccc(C2CCN(S(C)(=O)=O)CC2)cc1	100
O=C(NC1CCCCC1)c1cccc(NC(=O)c2nsc3ccccc23)c1	100
CC(C)c1ccc(NC(=O)CSc2ncccc2C(=O)NCc2ccccc2Cl)cc1	100
CC(C)NC(=O)C1=CCN(C(=O)NC(C)(C)C)CC1	104
COc1ccc(-c2cc(N3CCN(C(=O)NC4CCCCC4)CC3)ncn2)cc1OC	100

New compounds follow
SMILES	GIV Gai3 FP
Cc1ccc(NS(=O)(=O)c2c(C)sc(C)c2-c2cc(C(F)(F)F)on2)cc1	107
CCc1cc(Sc2nnc(NC(=O)Nc3ccc(F)cc3)s2)n2ncnc2n1	97
COc1ccc(C2N(S(=O)(=O)c3ccccc3)CCN2S(=O)(=O)c2ccc(C)cc2)cc1 (centres undefined)	111
COC(=O)C1=C(C)NC(=O)NC1c1cn(-c2ccccc2)nc1-c1ccc(OC)cc1 (centres undefined)	120
CCOc1ccc(NC(=O)CSc2nc3ccccc3c(=O)n2NC(=O)Cc2ccccc2)cc1	113
CCc1cccc(NS(=O)(=O)c2cc(-c3nc(C)c(C)s3)sc2C)c1	99
O=C(CC1CCN(C(=O)c2ccc3oc(-c4ccccc4)nc3c2)CC1)NCc1cccnc1	99
CN(Cc1ccccc1)C(=O)c1cccc(Nc2ncc(-c3cccc(F)c3)cn2)c1	105
c1ccc(-c2ccc(C3Nc4cccc5cccc(c45)N3)cc2)cc1	108
COc1ccc(NC2(c3nnnn3-c3ccc(OC)c(OC)c3)CCCC2)cc1	108
CCOC(=O)C1=C(C)Nc2nc3ccccc3n2C1c1ccc(Cl)cc1 (centres undefined)	107
CC(O)C12c3ccccc3C(c3ccccc31)C1C(=O)N(c3cccc(Br)c3)C(=O)C12 (centres undefined)	114
Cc1cc(N2CCN(C(c3ccccc3)c3ccccc3)CC2)n2c(nc3ccccc32)c1C#N	109
O=C(Nc1ccc(N2CCN(c3ccccn3)CC2)c(C(=O)O)c1)c1ccc(Br)cc1	102
Cc1ccc2c(c1)sc1nc(C)c(S(=O)(=O)Nc3ccc(Br)c(C)c3)c(=O)n12	105
COC(=O)c1c(C)oc2ccc(N(C(=O)c3cccc([N+](=O)[O-])c3)S(=O)(=O)c3ccc4ccccc4c3)cc12	118
COCCCNC(=O)c1cccc(Nc2ncc(-c3cccc(C)c3)cn2)c1	100

Bioassay records (PubChem)
